# Assay outcomes: PubChem BioAssay, several laboratories
# INS promoter inh – inhibitors of insulin promoter-driven GFP, primary screen, imaging, TRM-6 cells (human fetal islet line), eGFP reporter, cell count | reporter expression induced with tamoxifen | inhibition, % at 2 µM | hit rate 0.9% among 130,000;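 active means inhibition above the mean plus 3 SD, with well images judged a real hit on visual review, cut at about 60% in these data, passing the limit was not always enough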
# GALR2 ag – GALR2 receptor agonists, primary screen, cell-based; hit rate 0.48% among 140,000; Galanin receptor type 2 (Homo sapiens), O43603; activation, %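 (tested at 5 µM)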; GALR2-expressing cells, agonist activation read-out;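 active means above mean plus 3 SD of all compounds, about 5% in these data, not always enough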;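 further: 0% = vehicle buffer wells and 100% = reference agonist at full effect; tested in CHO reporter cells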
# Target sequence (O43603 whole entry, looked up): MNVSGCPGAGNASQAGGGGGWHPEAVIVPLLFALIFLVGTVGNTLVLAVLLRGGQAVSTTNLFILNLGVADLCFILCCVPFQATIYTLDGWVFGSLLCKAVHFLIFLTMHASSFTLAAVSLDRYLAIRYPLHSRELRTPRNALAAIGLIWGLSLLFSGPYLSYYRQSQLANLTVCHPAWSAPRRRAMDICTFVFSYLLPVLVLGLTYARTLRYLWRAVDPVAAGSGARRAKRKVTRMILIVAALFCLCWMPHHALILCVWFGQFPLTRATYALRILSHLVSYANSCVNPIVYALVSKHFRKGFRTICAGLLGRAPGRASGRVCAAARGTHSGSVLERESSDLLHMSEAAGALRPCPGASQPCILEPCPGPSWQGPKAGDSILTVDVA
# HSV replic up – enhancers of HSV replication in host cells, fold increase, host cell viability. HSV replication augmentation in cells. maximum fold increase. hit rate 0.005% among 220,000. AID 1956, 2009;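 active means peak rise of 1.5-fold or more in the series; tested in PC3 cells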;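 further: first round at 10 µM; read as green reporter fluorescence; hits show the peak of a series up to 25 µM; 1 = signal of infected wells without compound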
# PKD1 kinase inh – inhibitors of human PKD1 kinase, biochemical, fluorescence polarization | PKD1 kinase fluorescence polarization assay | AID 797, 2007 | Serine/threonine-protein kinase D1 (Homo sapiens), Q15139 | hit rate 0.056% among 200,000 | inhibition, %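 (about 10 µM by stock and volumes)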;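 active means inhibition of 50% or more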;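 further: controls were vehicle for no effect and a reference inhibitor for full effect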
# RGS16-Gao – modulators of RGS16 binding to Galphao, primary screen, biochemical, human proteins, multiplexed bead flow cytometry. hit rate 0.38% among 220,000. AID 1441, 2008. binding response (% of control), % at 10 µM. Regulator of G-protein signaling 16 (Homo sapiens) + Guanine nucleotide-binding protein …. bead-based flow cytometry RGS16-Galphao binding, fluorescence; actives lie on both sides;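 active means below 25% or above 175%, edge rows of some plates excepted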;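 further: Galphao activated by GDP with aluminum fluoride before binding; 100% = wells without compound and 0% = beads without RGS; some results beyond the cut were filed as inactive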
# Target sequence (O15492 whole entry, looked up): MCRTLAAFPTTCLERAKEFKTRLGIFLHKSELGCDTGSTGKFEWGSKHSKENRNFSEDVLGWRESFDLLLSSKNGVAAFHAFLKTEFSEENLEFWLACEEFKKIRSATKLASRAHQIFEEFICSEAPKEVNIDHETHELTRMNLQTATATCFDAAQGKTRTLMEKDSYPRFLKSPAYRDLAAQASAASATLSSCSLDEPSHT
# Target sequence (P09471 whole entry, looked up): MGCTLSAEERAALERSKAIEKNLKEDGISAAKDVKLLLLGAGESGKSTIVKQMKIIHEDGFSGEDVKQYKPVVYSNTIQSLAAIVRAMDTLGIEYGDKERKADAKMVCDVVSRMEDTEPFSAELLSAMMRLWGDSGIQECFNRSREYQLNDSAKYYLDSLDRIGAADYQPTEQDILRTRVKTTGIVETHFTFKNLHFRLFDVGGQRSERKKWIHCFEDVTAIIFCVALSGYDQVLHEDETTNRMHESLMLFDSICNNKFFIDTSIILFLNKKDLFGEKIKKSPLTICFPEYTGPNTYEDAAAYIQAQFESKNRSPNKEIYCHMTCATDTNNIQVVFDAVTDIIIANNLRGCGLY
# INS promoter inh cell count – further read-out of INS promoter inh, marked with its call; normalized cell count, %; measured here: cell count, toxicity; reference of the scale not given here;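 cells exposed to compound for 48 h; stained nuclei by imaging scaled within each plate; lower means fewer cells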
# HSV replic up primary fold – recorded beside HSV replic up, whose call it bears; fold increase; compound at 10 µM; measured here: primary screen fold increase 10 uM; tested in PC3 cells;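 GFP signal in the first replicate; 1 = infected wells without compound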
# Starred values were filed as active, the others as inactive; i = inactive; / = not tested or not shown; & = joins results of further samples.
molecule	INS promoter inh cell count	HSV replic up	HSV replic up primary fold	RGS16-Gao	INS promoter inh	PKD1 kinase inh	GALR2 ag
Oc1cccc(/C=N/Nc2ncnc3c2ncn3Cc2ccccc2)c1	70	i	0.76	95	-17	3	0.6
Cc1ccc(-c2cc(C(=O)O)n[nH]2)o1	102	i	1.3	115	26	-3	-1.8
Cc1ccc(-n2nnc3c(=O)n(CC(=O)c4ccccc4)cnc32)cc1	/	i	0.87	107	/	-12	-1.6
CCC(C)c1ccc(NC(=O)CSc2nncn2N)cc1 (centres undefined)	169	i	0.94	98	64	-9	-1.8
Cc1cccc(C(=O)c2cccc(C)c2)c1	61	i	1.1	93	0	-20	-1.0
CC(C)Sc1cc(N2CCOCC2)nc(-c2ccccc2)n1	/	i	0.86	109	/	-7	0.4
CCC(=O)N1CCN(CCN=CC2=C(O)CC(c3cccs3)CC2=O)CC1 (centres undefined)	134	i	0.95	103	-43	8	-0.9
Cc1ccccc1OCc1nnc(SC(C)C(=O)O)n1Cc1ccccc1 (centres undefined)	86	i	1.2	97	-141	-4	/
O=C1CC(NCc2ccncc2)C(=O)N1c1ccc(Cl)cc1 (centres undefined)	/	i	1.1	101	/	-6	-6.4
O=C(Nc1ncc2c(n1)CC(c1ccco1)CC2=O)c1ccccc1 (centres undefined)	135	/	/	97	-7	2	-0.9
COc1cc(/C=N/NC(=O)c2ccc(N(C)S(=O)(=O)c3ccccc3)cc2)cc(OC)c1OC	211	i	0.86	103	-93	-1	-0.7
Cc1cc(=O)oc2cc(OS(C)(=O)=O)ccc12	164	i	0.94&0.93	103&99	21	-1	0.3
COc1ccc(-n2c(CSc3nc(C)cc(C)n3)nnc2SCC(=O)Nc2nccs2)cc1	/	i	0.92	101	/	-8	-0.6
Cc1cc(C)c(C(=O)/C=C/c2cccc3ccccc23)c(=O)[nH]1	/	i	0.55	95	/	-5	0.7
COCCNC(=S)N1CCc2cc(OC)c(OC)cc2C1COc1cc(C)cc(C)c1 (centres undefined)	/	i	1.1	120	/	2	-0.6
CCC1Oc2ccccc2N(CC(=O)NCCN2C(C)CCCC2C)C1=O (centres undefined)	/	i	0.92	68	/	1	-2.2
CCN1CCCC1CNC(=O)C(=O)Nc1ccc(OC)cc1 (centres undefined)	/	i	0.95	100	/	-13	-0.1
CC(=O)Nc1nnc(-c2ccccn2)o1	/	i	0.98	77	/	-4	-0.3
Cn1c(Cn2nnc3ccccc32)nnc1SCC(=O)NCc1ccc2c(c1)OCO2	106	i	0.86	103	35	-7	-1.1
CCOCCCNC(=O)C1CC(=O)N(C2CCCC2)C1 (centres undefined)	90	i	0.98	74	0	8	28*
CCOC(=O)CSc1nnc2n(Cc3ccccc3)c(=O)c3c4c(sc3n12)CCC4	149	i	1	98	55	9	-0.8
Cn1cnnc1SCC(=O)N(Cc1ccc2c(c1)OCO2)C1(C(=O)NC2CCCCC2)CCCC1	95	i	1.3	96	-7	2	-1.9
Cc1cc2oc(=O)cc(C)c2cc1NC(=O)CCl	/	i	0.98	95	/	/	/
O=[N+]([O-])c1cc(/C=N/O)ccc1Sc1ccccc1	128	i	0.79	101	14	4	-1.3

# 7 entries drawn at random from the list so far, as already listed:
molecule	INS promoter inh cell count	HSV replic up	HSV replic up primary fold	RGS16-Gao	INS promoter inh	PKD1 kinase inh	GALR2 ag
Cc1cc(C)c(C(=O)/C=C/c2cccc3ccccc23)c(=O)[nH]1	/	i	0.55	95	/	-5	0.7
COCCNC(=S)N1CCc2cc(OC)c(OC)cc2C1COc1cc(C)cc(C)c1 (centres undefined)	/	i	1.1	120	/	2	-0.6
CCOCCCNC(=O)C1CC(=O)N(C2CCCC2)C1 (centres undefined)	90	i	0.98	74	0	8	28*
Cn1cnnc1SCC(=O)N(Cc1ccc2c(c1)OCO2)C1(C(=O)NC2CCCCC2)CCCC1	95	i	1.3	96	-7	2	-1.9
CCN1CCCC1CNC(=O)C(=O)Nc1ccc(OC)cc1 (centres undefined)	/	i	0.95	100	/	-13	-0.1
CCOC(=O)CSc1nnc2n(Cc3ccccc3)c(=O)c3c4c(sc3n12)CCC4	149	i	1	98	55	9	-0.8
COc1ccc(-n2c(CSc3nc(C)cc(C)n3)nnc2SCC(=O)Nc2nccs2)cc1	/	i	0.92	101	/	-8	-0.6

# (further entries)
molecule	INS promoter inh cell count	HSV replic up	HSV replic up primary fold	RGS16-Gao	INS promoter inh	PKD1 kinase inh	GALR2 ag
CCN(CC)S(=O)(=O)c1ccc(N2CCOCC2)c(NC(=O)c2cc(C)cc(C)c2)c1	/	i	1.1	99	/	12	0.8
COc1ccc(C(=O)O/N=C(\N)Cc2ccc(Cl)c(Cl)c2)cc1OC	100	i	0.53	106	-27	0	0.0
Cc1cc(C)cc(CSCC(=O)NN=C2CCCCCC2)c1	112	i	0.92	91	-47	-2	-0.5
Cc1ccccc1C(OCC(O)CN1CCCCC1CCO)c1ccccc1 (centres undefined)	103	i	0.95	99	-42	-9	-1.9
CC(=O)Oc1cc2oc(=O)cc(C)c2cc1OC(C)=O	/	i	1.2	90	/	13	6.0*
CCN(CC)S(=O)(=O)c1ccc2c(c1)nc(CCC(=O)O)n2CC	129	i	0.9	101	-13	1	/
Cc1ccc(C)c(NC(=O)c2cc(-c3cccnc3)nc3ccccc23)c1	/	i	0.76	98	/	1	/
Cc1ccc(CN2CCSc3ccc(C(=O)NCc4ccccn4)cc32)cc1	112	i	0.94	107	-43	4	/
CC(c1cccnc1)N(CCN(C)C)C(=O)Nc1ccc(Cl)cc1 (centres undefined)	/	i	0.94	103	/	5	-2.2
CSCCNCc1cn(-c2ccc(F)cc2F)nc1-c1ccccc1C	/	i	1.1	96	/	-1	/
O=C(Nc1ccccc1)C1=C[C@H](c2csc3ccccc23)C[C@H](OCCCCO)O1	/	i	0.96	101	/	8	/
CCC(C)C(NC(=O)c1ccccc1NC(=O)c1ccco1)C(=O)NNC(=O)c1ccc(OC)cc1 (centres undefined)	54	i	1.1	64	-30	-8	-0.6
COc1ccc(-n2nnnc2SCC(=O)Nc2nc3c(s2)CCCC3)cc1	110	i	1	95	19	-10	-3.7
Nc1ncc(Br)cc1S(=O)(=O)NCCC(=O)Nc1cccc(Cl)c1	85	i	0.92	104	-25	13	0.0
O=C(NC1CCCCC1)c1cc2nc(-c3ccco3)cc(C(F)(F)F)n2n1	92	i	1.1	118	14	5	-1.2
O=C(Nc1ccccc1C(=O)O)c1ccc(NC(=O)c2ccc(Br)o2)cc1	118	i	0.91	102	9	-3	-0.9
O=C(Cn1cnc2ccccc21)N/N=C/c1ccccn1	76	i	0.9	103	23	-14	-0.8
NC(=O)c1cccnc1Sc1ccc(Cl)cc1	58	i	1	119	-5	-10	-0.3
O=S(=O)(Nc1ccc(Cc2ccncc2)cc1)N1CCCC1	86	i	0.97	100	56	1	0.6
COc1ccc(CNC(=O)[C@H](C)[C@@H]2C[C@@]2(C)[C@@H](NC(=O)OCc2ccccc2)c2ccccc2)cc1OC	108	i	0.97	115	27	-7	-0.9
COC(=O)C1CC(=O)N(CCc2c[nH]c3ccccc23)C1 (centres undefined)	/	i	1	94	/	5	-0.5
CC1(C)CC(=O)C(=C2SCCCS2)C(=O)C1	139	i	1	97	-67	-10	-0.3
CCCNC(=O)C(NS(=O)(=O)c1ccc2c(c1)c(=O)n(C)c(=O)n2C)c1ccccc1 (centres undefined)	/	i	1.1	107	/	6	-0.8
COc1cc(/C=N/NC(=O)c2cccnc2)ccc1OCC(=O)Nc1c(C)cc(C)cc1C	61	i	0.99	65	11	-14	-1.0
COc1cc2cc(CN(Cc3cccs3)C(=S)Nc3ccc(C)cc3)c(=O)[nH]c2cc1OC	50	/	/	102	-100	-13	0.0
S=c1[nH]nc(COc2ccccc2)n1/N=C/C=C/c1ccco1	/	i	0.92	102	/	/	/
COC(=O)C1=C(C)OC(N)=C(C#N)C1c1ccc(OC)c(OC)c1OC (centres undefined)	188	i	0.9	99	-42	5	-0.7
Cn1nc(-c2ccc(Cl)cc2)c2cc(C(=O)NC3CC3)sc21	/	i	0.8	101	/	2	-2.6
COc1ccc(N2CCN(C(=O)NC34CC5CC(CC(C5)C3)C4)CC2)cc1	/	i	1.1	100	/	4	-1.8
Cc1ccc(SCC(=O)c2cc(C)c(OC(=S)N(C)C)c(C)c2)cc1	91	i	1.1	100	6	4	-0.6
Cc1ccc(S(=O)(=O)Nc2nc3ccccc3nc2N2CCc3ccccc3C2)cc1	126	/	/	101	-19	0	-1.2
Cc1ccc(S(=O)(=O)N(CC(=O)NCCC2=CCCCC2)Cc2ccccc2)cc1	106	i	1.1	105	-6	-1	-2.9
N#CCC(=O)c1ccccc1Oc1ccc(Cl)cc1	/	i	1.1	100	/	-2	/
O=C1O/C(=C\c2ccccc2)c2ccccc21	138	i	0.99	81	4	-2	-1.1
O=C1NC(CCc2ccccc2)C(=O)N1CCOc1cccc(Br)c1 (centres undefined)	72	i	0.9	102	20	6	/
O=C(Nc1ccccc1N1CCN(C(=O)c2ccc(Cl)cc2)CC1)c1ccc2c(c1)OCO2	191	i	1	100	-19	-9	1.5
O=[N+]([O-])c1ccc(S(=O)(=O)NCCc2cn3ccccc3n2)cc1	122	i	1	107	17	-13	-0.2
O=C(COC(=O)c1n[nH]c2ccccc12)Nc1ccc([N+](=O)[O-])cc1	93	i	1	42	-7	-11	-1.3
O=C(NCCCN1CCCC1=O)Nc1ccc(F)c(Cl)c1	94	i	1	103	-10	-1	0.3
CCC1(C)Cc2ccccc2-c2nc(-c3ccccc3)oc(=O)c21 (centres undefined)	55	i	0.89	99	7	-11	-0.1
Oc1ccc(C2C(c3ccccc3)=NN=C(c3ccccc3F)N2O)c(O)c1 (centres undefined)	167	i	0.87	101	8	9	0.1
Cc1n[nH]c(C)c1CCC(=O)N/N=C/c1cccc([N+](=O)[O-])c1	150	i	0.89	103	17	-2	/
OC(COc1cccc2ccccc12)CN1CCCC1 (centres undefined)	187	i	1.1	108	-41	-13	-1.3
COC(=O)C(Cc1ccc(O)cc1)NC(=O)c1ccccc1 (centres undefined)	161	i	0.92	102	-29	-1	-1.3
Cc1ccc(S(=O)(=O)N2CCOCC2)cc1NC(=O)c1cccc(S(=O)(=O)N2CCCC2)c1	/	i	1	99	/	-7	/
O=C(CNC(=S)N(Cc1ccccc1)Cc1ccccc1F)NCc1ccc(Cl)cc1	114	i	1	93	-53	-2	/
COc1ccc(NC(=S)N2CCN(Cc3ccccc3)CC2)cc1	100	i	0.93	101	54	-2	/
CCCOc1ccc(C(C)=O)cc1CN1CCOCC1	/	i	1.1	55	/	6	-2.2
CCOCCCNC(=O)N[C@@H](Cc1ccccc1)C(=O)OC	/	i	1.1	102	/	-2	-1.9
CCOC(=O)C1(Cc2ccccc2C)CCCN(S(=O)(=O)c2cccnc2)C1 (centres undefined)	/	i	0.96	104	/	0	/
S=C(NCc1ccccc1)N1CCN(c2cccc(Cl)c2)CC1	/	i	0.99	100	/	10	/
C=CCN(CC=C)S(=O)(=O)c1ccc(NC(=O)COc2ccccc2OC)cc1	78	i	0.98	107	-53	-3	-1.1
CC(=O)SC1CC2=CC(=O)CCC2(C)C2CCC3(C)C(CCC34CCC(=O)O4)C12 (centres undefined)	133	i	0.68	98	14	-5	/
CCOC(=O)C1(S(=O)(=O)c2ccccc2)CCN(Cc2ccccc2)CC1	/	i	0.73	98	/	-10	-1.3
Cc1noc(NS(=O)(=O)c2ccc(NC(=O)CC34CC5CC(CC(Br)(C5)C3)C4)cc2)c1C	78	i	0.95	102	-17	3	-0.5
Cc1cc(=O)[nH]c2c1c(=O)[nH]n2C1CC(C)N(C)CC1C (centres undefined)	118	i	0.99	103	-3	-6	-2.4
CCCCCNc1nc(N2CCCC2)c2c(c1C#N)CCN(C)C2	126	i	0.89	103	18	1	2.4
Cc1noc(C)c1C(=O)OCC(=O)Nc1ccc(C(N)=O)cc1	/	i	1	96	/	-2	/
